D2 agonist = human D2 receptor agonism in beta-arrestin assay | P14416 | DiscoveRx PathHunter D2 beta-arrestin, luminescence, 90 min; 100% = 57 uM dopamine signal | activation, % (no concentration beside the values) | hit rate 0.084% among 360,000 | AID 624465; in the data active = activation above about 40%; inconclusive = about 15% to 40%; inactive = below about 15%; note: compound concentration not given in the record; the text of the record calls up to 30% inactive
Target sequence (P14416 whole entry, looked up): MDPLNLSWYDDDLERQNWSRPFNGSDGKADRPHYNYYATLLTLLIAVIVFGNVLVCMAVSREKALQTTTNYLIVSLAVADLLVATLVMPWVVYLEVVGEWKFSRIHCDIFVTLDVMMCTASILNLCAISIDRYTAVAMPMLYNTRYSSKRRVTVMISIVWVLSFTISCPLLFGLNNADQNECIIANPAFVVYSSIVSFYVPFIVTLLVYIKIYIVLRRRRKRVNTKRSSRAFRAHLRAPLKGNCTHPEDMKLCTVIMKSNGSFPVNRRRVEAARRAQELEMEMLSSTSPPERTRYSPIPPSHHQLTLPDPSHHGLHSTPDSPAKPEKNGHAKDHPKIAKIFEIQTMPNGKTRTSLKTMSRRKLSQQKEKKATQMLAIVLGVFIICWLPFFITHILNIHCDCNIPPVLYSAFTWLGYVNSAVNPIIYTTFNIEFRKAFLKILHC
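Agonist mode: compounds alone added to overnight-plated D2 PathHunter cells for 90 min at 37 C, with 57 uM final dopamine (EC100) defining full response. Beta-arrestin recruitment detected by chemiluminescent reagent, read after 1 h at ambient temperature.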
Six1-Eya2 blk = inhibitors of human Six1/Eya2 interaction | hit rate 0.56% among 360,000 | AID 651725 | activity change, % (no concentration beside the values) | AlphaScreen GST-Six1/His-Eya2 binding, biochemical; active compounds read low; control for the full effect not named in the record | Q15475+O00167; in the data active = activity change below about -65%; inconclusive = about -30% to -65%; inactive = above about -30%; note: % is set by controls: 0 for no effect and ±100 for the full control effect
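AlphaScreen luminescence read after one hour at 37 °C in darkness. Pin-transferred compounds met GST-Six1 and His-Eya2 protein (5X stock 250 nM/500 nM) plus glutathione donor and Ni-chelate acceptor beads (5X, 50 ug/mL).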
TRPML1 blocker = inhibitors of human TRPML1 channel | Q9GZU1 | TRPML1-inducible cells, Ca2+ dye fluorescence, FDSS; active compounds read low; inhibition of EC80 agonist-evoked calcium signal | activity change, negative = inhibition, % (no concentration beside the values) | hit rate 0.02% among 390,000; in the data active means activity change below about -50%; inconclusive means about -30% to -50%; inactive means above about -30%;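 note: stimulus is agonist 54-4 at its EC80 concentration; % is set by controls: 0 for no effect and ±100 for the full control effect; compound concentration not given in the record; the text of the record puts the active cut at -80%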
Target sequence (Q9GZU1 whole entry, looked up): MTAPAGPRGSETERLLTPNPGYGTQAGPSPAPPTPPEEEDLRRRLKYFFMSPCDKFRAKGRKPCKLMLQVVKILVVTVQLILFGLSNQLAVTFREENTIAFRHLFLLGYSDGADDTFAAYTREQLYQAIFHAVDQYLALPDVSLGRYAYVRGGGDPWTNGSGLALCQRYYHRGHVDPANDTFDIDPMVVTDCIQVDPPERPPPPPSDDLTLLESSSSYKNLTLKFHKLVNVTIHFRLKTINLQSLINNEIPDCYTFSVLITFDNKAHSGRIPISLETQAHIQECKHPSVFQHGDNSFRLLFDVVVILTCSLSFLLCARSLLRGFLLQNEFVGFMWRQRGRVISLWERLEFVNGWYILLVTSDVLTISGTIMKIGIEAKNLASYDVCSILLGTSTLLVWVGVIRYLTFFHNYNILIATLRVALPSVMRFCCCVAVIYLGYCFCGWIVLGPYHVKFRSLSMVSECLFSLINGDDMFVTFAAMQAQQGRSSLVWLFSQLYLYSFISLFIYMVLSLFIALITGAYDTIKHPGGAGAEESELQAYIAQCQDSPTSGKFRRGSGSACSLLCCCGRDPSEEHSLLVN
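Calcium fluorescence in TRPML1-DL cells induced overnight with Tet: a 110 s read after compound pin addition, then a 110 s antagonist read after challenge with 54-4 at 4 uM final (EC80).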
PINK1 modulator = changes PINK1 expression | hit rate 0.2% among 410,000 | PINK1 immunofluorescence, high-content cytometry, 24 h | Potency, µM (titrated, usually from 76.6 µM), for inactives: top-dose activation (PINK1 increase), most hits filed as activators; active = well fitted activation curve with a large enough effect; inconclusive = small, poorly fitted or top-dose-only effect; inactive = flat fitted curve, though single readings scatter; cell line not stated here;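 note: potency is the fitted concentration of half-maximal effect; % of control where 0% means no effect; nearly all actives have a fitted effect of over 65% in size; a mitochondrial uncoupler was the plate control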
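Stable cell line treated 24 h with compounds at 5 concentrations (CCCP controls), then fixed and immunostained for PINK1 plus nuclear and cell stains; PINK1 immunofluorescence quantified by laser-scanning microplate cytometry.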
TRPML1 agonist = activates the human TRPML1 channel | AID 624414 | TRPML1-expressing cells, Ca2+ dye fluorescence, FDSS; host cell line not named in the record; reference of the full effect not given here | activation, % (test concentration not listed) | hit rate 0.12% among 410,000 | Q9GZU1; in the data active = activation above about 50%; inconclusive = about 30% to 50%; inactive = below about 30%; note: 0% is about no effect; the text of the record puts the active cut at 80%
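Tet-induced TRPML1-DL cells, 1,500 per well, cultured overnight, were loaded with a no-wash Ca2+ dye for 45–90 min. Calcium fluorescence was recorded on the FDSS for 110 s after compound addition, before the EC80 agonist (4 uM 54-4) was added.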
D2 PAM = positive allosteric modulators of human D2 dopamine receptor; P14416; DiscoveRx D2 beta-arrestin cells, luminescence, 90 min; 100% = 57 uM dopamine signal; potentiation, % (no concentration beside the values); hit rate 0.23% among 360,000; active = potentiation of 50% or more; inconclusive = 30% to 50%; inactive = 30% or less;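 note: compound concentration not given in the record; tested on top of an EC20 dose of dopamine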
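PathHunter D2 cells, attached overnight at 37 deg C, received compound in DMSO plus dopamine at EC20 (50 nM final) for 90 min at 37 deg C. Beta-arrestin recruitment was read as luminescence after 1 h with detection reagent at ambient temperature.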
* hit, by the source's call; [ ] = dose if it differs, or a comment. Not a hit list; 1% or so of the library scored in one or more.

Sample of the layout, four compounds:
Results for COc1ccc(N(CC(=O)N2CCc3ccccc3C2)S(=O)(=O)c2ccc(C)cc2)cc1Cl ?
TRPML1 blocker: -3; PINK1 modulator: -5.2%; TRPML1 agonist: 0.9

How did COC(=O)CCC(=O)NC(=S)Nc1sc(C)c(C)c1C(N)=O do in these assays?
D2 agonist: -10; Six1-Eya2 blk: -5; TRPML1 blocker: 1; PINK1 modulator: 17%; TRPML1 agonist: 2.2; D2 PAM: -34

Results for CC(=O)N/C(=C\c1ccccc1)C(=O)OCCCOC(=O)/C(=C/c1ccccc1)NC(C)=O ?
D2 agonist: -1.1; Six1-Eya2 blk: 7; TRPML1 blocker: -25; PINK1 modulator: 1.5%; TRPML1 agonist: 0.7; D2 PAM: -15

How did NNc1nc2sc3c(c2c(=O)n1C1CCCCC1)CCN(Cc1ccccc1)C3 do in these assays?
D2 agonist: -0.5; Six1-Eya2 blk: -22; TRPML1 blocker: 0; PINK1 modulator: -2.2%; TRPML1 agonist: -0.2; D2 PAM: -5

This part in full, previewed entries included:
Results for COc1ccc(N(CC(=O)N2CCc3ccccc3C2)S(=O)(=O)c2ccc(C)cc2)cc1Cl ?
TRPML1 blocker: -3; PINK1 modulator: -5.2%; TRPML1 agonist: 0.9

How did COC(=O)CCC(=O)NC(=S)Nc1sc(C)c(C)c1C(N)=O do in these assays?
D2 agonist: -10; Six1-Eya2 blk: -5; TRPML1 blocker: 1; PINK1 modulator: 17%; TRPML1 agonist: 2.2; D2 PAM: -34

Results for CC(=O)N/C(=C\c1ccccc1)C(=O)OCCCOC(=O)/C(=C/c1ccccc1)NC(C)=O ?
D2 agonist: -1.1; Six1-Eya2 blk: 7; TRPML1 blocker: -25; PINK1 modulator: 1.5%; TRPML1 agonist: 0.7; D2 PAM: -15

How did NNc1nc2sc3c(c2c(=O)n1C1CCCCC1)CCN(Cc1ccccc1)C3 do in these assays?
D2 agonist: -0.5; Six1-Eya2 blk: -22; TRPML1 blocker: 0; PINK1 modulator: -2.2%; TRPML1 agonist: -0.2; D2 PAM: -5

Results for CCC(C)NCCCOc1ccc(Cl)cc1C(C)(C)C (stereo unspecified) ?
D2 agonist: -5.1; Six1-Eya2 blk: 8; TRPML1 blocker: 3; PINK1 modulator: 6.6%; TRPML1 agonist: 0.0; D2 PAM: -13

How did COc1ccc(OCCSc2nnc(-c3cccnc3)n2N)cc1 do in these assays?
D2 agonist: -2.2; Six1-Eya2 blk: 0; TRPML1 blocker: 20; PINK1 modulator: 1.0%; TRPML1 agonist: -0.1; D2 PAM: 7

Results for Cc1ccc(C(c2sc3nc(C)nn3c2O)N2CCN(CCO)CC2)cc1 (stereo unspecified) ?
D2 agonist: -1.2; Six1-Eya2 blk: 2; TRPML1 blocker: 8; PINK1 modulator: 0.3%; TRPML1 agonist: -0.4; D2 PAM: -3

What do the screens show for `CSc1nsc(SCC(=O)Nc2ccc(OC(C)=O)cc2)n1`?
D2 agonist: -2.1; Six1-Eya2 blk: -2; TRPML1 blocker: -4; PINK1 modulator: 3.9%; TRPML1 agonist: 0.2; D2 PAM: 0

What do the screens show for `CCCCOP(=O)(OCCCC)C(O)c1ccc(F)cc1` (stereo unspecified)?
D2 agonist: -1.1; Six1-Eya2 blk: 4; TRPML1 blocker: 3; PINK1 modulator: 0.0%; TRPML1 agonist: -0.1; D2 PAM: -12

Results for O=C(Nc1ccccc1N1CCCC1)c1ccc(Cl)cc1Cl ?
D2 agonist: -1.7; Six1-Eya2 blk: -11; TRPML1 blocker: 8; PINK1 modulator: 4.4%; TRPML1 agonist: 2.0; D2 PAM: -8

Results for O=C(COc1ccccc1)NCC(=O)N/N=C/c1cccs1 ?
D2 agonist: -0.2; Six1-Eya2 blk: 1; PINK1 modulator: 0.4%; D2 PAM: 0

What do the screens show for `COc1ccc(NC(=O)CCc2c(C)nc3cc(-c4cccc(F)c4)nn3c2C)cc1Cl`?
TRPML1 blocker: 19; PINK1 modulator: 3.5%; TRPML1 agonist: -0.6

How did O=C(O)CCNC(=S)Nc1cccc(F)c1 do in these assays?
D2 agonist: -3.4; Six1-Eya2 blk: 4; TRPML1 blocker: 28; PINK1 modulator: 0.2%; TRPML1 agonist: 1.5; D2 PAM: -7

Results for COc1ccc(-c2csc(Cc3nnc(N4CCOCC4)n3-c3ccccc3)n2)cc1 ?
D2 agonist: 2.9; Six1-Eya2 blk: 0; TRPML1 blocker: 3; PINK1 modulator: 4.6%[38.3 µM]; TRPML1 agonist: -0.1; D2 PAM: 2

How did O=C(O)C1CC=CCC1C(=O)NCc1ccccc1 (stereo unspecified) do in these assays?
D2 agonist: -0.3; Six1-Eya2 blk: 6; TRPML1 blocker: 11; PINK1 modulator: -2.3%[38.3 µM]; TRPML1 agonist: -0.8; D2 PAM: -2

Results for CCc1ccccc1NC1c2ccccc2C(=O)N1Cc1ccco1 (stereo unspecified) ?
D2 agonist: -4.6; Six1-Eya2 blk: -8; TRPML1 blocker: -4; PINK1 modulator: 2.2%; TRPML1 agonist: 1.9; D2 PAM: -4

How did Cc1ccccc1-c1noc(-c2ccccc2C(=O)N2CCCC2)n1 do in these assays?
D2 agonist: -2.1; Six1-Eya2 blk: -16; TRPML1 blocker: 16; PINK1 modulator: 3.5%; TRPML1 agonist: -0.3; D2 PAM: -8

What do the screens show for `CC1CN(c2ccc(S(=O)(=O)N3CCCC3)cn2)CC(C)O1` (stereo unspecified)?
D2 agonist: 0.6; Six1-Eya2 blk: -2; PINK1 modulator: 1.2%; D2 PAM: -1

Results for CCc1cc(C(=O)N/N=C/c2ccc(O)cc2O)c2ccccc2n1 ?
D2 agonist: -2.0; Six1-Eya2 blk: -93*; TRPML1 blocker: 19; PINK1 modulator: 0.9%; TRPML1 agonist: 1.1; D2 PAM: -1

Results for CCC(=O)N1CCc2cc(Br)cc(S(=O)(=O)CCC(=O)NCCOC)c21 ?
D2 agonist: -1.4; Six1-Eya2 blk: 3; TRPML1 blocker: -10; PINK1 modulator: 3.9%; TRPML1 agonist: -0.2; D2 PAM: 0

How did OCC1(CCc2ccccc2)CCN(Cc2cc(F)ccc2-n2cccn2)CC1 do in these assays?
D2 agonist: -5.7; Six1-Eya2 blk: -4; TRPML1 blocker: -12; PINK1 modulator: 1.9%; TRPML1 agonist: -0.8; D2 PAM: -21

How did CC(OC(=O)c1ccc(CN2CCCC2=O)cc1)C(=O)Nc1ccc(Cl)cc1 (stereo unspecified) do in these assays?
D2 agonist: -1.3; Six1-Eya2 blk: 4; TRPML1 blocker: 7; PINK1 modulator: 2.3%; TRPML1 agonist: 0.6; D2 PAM: 4

Results for CCOC(=O)C1CCN(c2cc3c(cc2NC(=O)c2ccc(Cl)cc2)n(C)c(=O)n3C)CC1 ?
TRPML1 blocker: 31; PINK1 modulator: -1.7%; TRPML1 agonist: 0.5

How did CC(=O)c1ccc(NS(=O)(=O)c2ccc(-c3cc(C)no3)s2)cc1 do in these assays?
TRPML1 blocker: -3; PINK1 modulator: 1.1%; TRPML1 agonist: -0.2

What do the screens show for `O=c1cc(N2CCCCC2)c2ccccc2o1`?
D2 agonist: 3.4; Six1-Eya2 blk: 9; TRPML1 blocker: -12; PINK1 modulator: -1.1%; TRPML1 agonist: 0.2; D2 PAM: 5

How did CCn1c(CNc2nc(-c3ccccc3)cs2)nnc1SCC(=O)NCc1ccco1 do in these assays?
D2 agonist: -3.6; Six1-Eya2 blk: -24; TRPML1 blocker: -1; PINK1 modulator: -0.9%; TRPML1 agonist: 1.3; D2 PAM: -14

How did CS(=O)(=O)N1CCN(C(=O)c2ccc3c(c2)OCCO3)CC1 do in these assays?
D2 agonist: -2.7; Six1-Eya2 blk: 2; TRPML1 blocker: 56; PINK1 modulator: 0.0%; TRPML1 agonist: 0.6; D2 PAM: -3

Results for CN1/C(=C\C(=O)C[n+]2ccc3ccccc3c2)C(C)(C)c2ccccc21 ?
D2 agonist: -2.1; Six1-Eya2 blk: -5; TRPML1 blocker: -19; PINK1 modulator: 45µM*; TRPML1 agonist: -0.1; D2 PAM: -18

What do the screens show for `CCOC(=O)N/N=C(C)/C=C/c1ccco1`?
D2 agonist: 7.0; Six1-Eya2 blk: -2; TRPML1 blocker: 9; PINK1 modulator: 6.5%; TRPML1 agonist: -1.0; D2 PAM: 3

What do the screens show for `CC1=C(c2cccc(Cl)c2)S(=O)(=O)NC1=NCc1ccccc1C`?
TRPML1 blocker: -13; PINK1 modulator: 5.3%; TRPML1 agonist: 0.0

Results for O=c1cc(CSc2nnc(NC3CCCCC3)s2)nc2sccn12 ?
D2 agonist: 5.3; Six1-Eya2 blk: -3; TRPML1 blocker: -3; PINK1 modulator: 0.2%; TRPML1 agonist: -0.9; D2 PAM: 1

How did Cn1c(=O)c2sccc2n2c(CCCC(=O)Nc3ccc(Oc4ccc(Cl)cc4)cc3)nnc12 do in these assays?
TRPML1 blocker: 5; PINK1 modulator: 1.7%; TRPML1 agonist: 0.3

How did CCOc1ccccc1NC(=O)Cn1nnc(C(=O)Nc2ccccc2Cl)c1N do in these assays?
D2 agonist: 1.9; Six1-Eya2 blk: 7; TRPML1 blocker: 7; PINK1 modulator: 3.7%; TRPML1 agonist: 4.7; D2 PAM: -12

What do the screens show for `COc1ccc(CCC(=O)N2CCc3c([nH]c4ccccc34)C2c2ccc(F)cc2)cc1` (stereo unspecified)?
TRPML1 blocker: 22; PINK1 modulator: 3.7%; TRPML1 agonist: 0.9

What do the screens show for `COCCCn1c(C)cc(C(=O)COC(=O)CCc2nc3ccccc3c(=O)[nH]2)c1C`?
D2 agonist: 6.8; Six1-Eya2 blk: -5; TRPML1 blocker: -10; PINK1 modulator: 1.6%; TRPML1 agonist: 0.5; D2 PAM: 1

Results for O=C(CCN(CCO)Cc1ccccc1)Nc1ccc(Br)cc1 ?
D2 agonist: -2.4; Six1-Eya2 blk: 6; TRPML1 blocker: 18; PINK1 modulator: 5.3%[38.3 µM]; TRPML1 agonist: 0.4; D2 PAM: -18

How did c1coc(-c2nc3cc4ccccc4cc3nc2-c2ccco2)c1 do in these assays?
TRPML1 blocker: 10; PINK1 modulator: -0.7%; TRPML1 agonist: 1.6

Results for COc1ccccc1N1C(=O)c2cccc3c(C(=O)O)ccc(c23)C1=O ?
D2 agonist: -4.9; Six1-Eya2 blk: -5; TRPML1 blocker: 11; PINK1 modulator: 1.0%; TRPML1 agonist: 0.9; D2 PAM: -17

How did CCC(Oc1ccccc1)C(=O)N(C)CC(=O)N(CC(C)C)c1c(N)n(CC(C)C)c(=O)[nH]c1=O (stereo unspecified) do in these assays?
D2 agonist: -7.4; Six1-Eya2 blk: 3; TRPML1 blocker: -3; PINK1 modulator: -0.2%; TRPML1 agonist: 0.4; D2 PAM: -28

What do the screens show for `O=C(CC1CCS(=O)(=O)C1)NC1CCCCC1` (stereo unspecified)?
D2 agonist: -0.1; Six1-Eya2 blk: 4; TRPML1 blocker: -11; PINK1 modulator: 0.8%; TRPML1 agonist: -0.8; D2 PAM: -1

Screening results as filed in PubChem.
